# Screening data as filed in PubChem.
# Tg IFNy HTS = T. gondii growth inhibition with IFN-gamma, primary screen, cell-based. Toxoplasma gondii growth in IFN-gamma-treated host cells; active compounds read low; reference of the scale not given here. activity change, negative = inhibition, %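 (about 20 µM by stock and volumes)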. 69,000 tested, 3.8% active;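 active means below -70%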;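 further: host cells are HeLa cells infected with Toxoplasma gondii; parasite growth read as luciferase light; one replicate is shown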
# An asterisk follows results filed as active; i = inactive; & = joins results of further samples. Not all compounds are listed (hit frequency here may not be typical).
Structure	Tg IFNy HTS
Cc1ccc(NC(=O)NC(=O)c2c(C)noc2-c2snnc2C)cc1	-107*
C/C=C/c1ccc(C2[C@H]3CNC[C@@H]2N3C(=O)Nc2ccc3c(c2)OCO3)cc1 (stereo partly drawn)	15&42
O=C(Cc1ccccn1)NC(Cc1cccs1)c1ccccn1 (stereo not drawn)	69
COc1ccccc1CNC(=O)C[C@@H]1C=C[C@H](NC(=O)CC2CC2)[C@H](CO)O1	6
CCc1csc(CNC(=O)c2ccc(N3CC(n4cccn4)C3)nc2)n1	-18
CN(C)CCCNC(=O)C[C@H]1CC[C@@H]2[C@H](COC[C@@H](O)CN2Cc2cccc(C(F)(F)F)c2)O1	-36
CCOC(=O)c1c(N)nc(SC)n1-c1ccccc1OC	-16
CCOc1nc(NC)nc(N(C#N)CN2C(=O)c3ccccc3C2=O)n1	64
Cc1ccc(NC(=O)CC(=O)NCCc2nc(C)cc(C(F)(F)F)n2)cc1	-2
CC(C)N(C)Cc1nnc2n1CCN(C(=O)c1ccn[nH]1)C2	1
c1ccc(-c2ncn(C3CCNC3)c2-c2cccn2-c2nccs2)cc1 (stereo not drawn)	43
Cc1ccc(CN2CCNC(=O)C2CC(=O)Nc2cnc3n2CCCC3)cc1 (stereo not drawn)	-47
O=C1CCCCn2cc(nn2)COC[C@@H](Cc2ccccc2)N1	-33
CC(C)(C)c1ccc(CSC2=Nc3ccccc3C3=NC(Cc4ccccc4)C(=O)N23)cc1 (stereo not drawn)	-67
COc1cccc(CN2[C@@H](CO)[C@H](c3ccccc3)C23CN(C(=O)C2CCCCC2)C3)c1	20
c1ccc2c(c1)CCc1ccccc1NC2	27
Cc1cnn(C(C)C(=O)N2CCc3[nH]nc(-c4ccc(F)c(F)c4)c3C2)c1 (stereo not drawn)	-40
Cc1c[nH]c(CN2CCCC(O)(CO)C2)c(C)c1=O (stereo not drawn)	0
Cc1cc(C)n(CC(=O)Nc2ccc3oc(C)cc3c2)n1	1
N#C[C@H]1[C@@H](c2ccc(C#Cc3ccccc3F)cc2)[C@H](CO)N1C(=O)c1cccnc1	-30
CCN1CCC2(CN(C(=O)N(C)C)CC23CCN(C(=O)Cc2ccsc2)CC3)C1=O (stereo not drawn)	17
Cn1ncc2c3ccccc3n(CC(=O)NCc3cccnc3)c2c1=O	335
O=C(c1cnn2ccccc12)N1C[C@H]2OC(=O)N(Cc3ccccn3)[C@H]2C1	3
Cc1ccc(S(=O)(=O)N(C)c2ccc(Br)cc2C(=O)c2ccccc2)cc1	-52
CC(C)(C)NC(=O)C1C2CC3(Oc4ccc5ccccc5c42)N1c1ccccc1C3(C)C (stereo not drawn)	-45
COC(=O)CCC(=O)N1CC2CN(Cc3ccc[nH]3)CC2C1 (stereo not drawn)	35
O=C(C1CCOCC1)N1CCC2(CC1)CNS(=O)(=O)c1ccccc1OC2	6
O=C1N(Cc2cccc(F)c2)CCC12CCN(CC1CCOCC1)C2 (stereo not drawn)	-51
Cc1nc(CN2CCN(C(=O)CCCc3nc(-c4ccccn4)no3)CC2)cs1	3
COc1ccc(N2CCN(C(=O)c3sc4nc5ccc(OC)cc5cc4c3N)CC2)cc1	24
CC(=O)N1CCO[C@H]2CN(C(=O)Cc3ccccn3)CC[C@@H]2C1	-2
NC(=O)c1ccnc(-c2ccc(Cl)c(Cl)c2)c1	41
C/C(=N\NC(=O)[C@@H]1C(=O)NC[C@H]1c1ccccc1)c1cccc(Br)c1	9
CC1=C(C(=O)NCCc2ccc(Cl)cc2)C2(CCN(S(C)(=O)=O)CC2)OC1=O	12
COc1ccc(C(C)NC(=O)C(C)Cn2nc(C)nc2C)c2ccccc12 (stereo not drawn)	36
O=C(Cn1c(=O)ccc2cc(S(=O)(=O)N3CCCC3)ccc21)Nc1ccc2c(c1)OCCO2	-23
CCOc1ccc(NC(=O)N2CCCn3cncc3C2)cc1	11
O=C(c1cc(COc2c(F)cccc2F)on1)N1CCCC1c1ccco1 (stereo not drawn)	2
CCC(Oc1ccccc1F)C(=O)N1CCCC(c2cc3ncccc3cn2)C1 (stereo not drawn)	-17
C#CCOC(=O)Nc1cnc(N2CCOCC2)c(C(F)(F)F)c1	1
CCOCC(=O)N1C[C@@H]2CN(c3cnccn3)CC[C@H]2C1	-53
COCC(=O)N1[C@H](CO)[C@@H]2c3ccccc3NC[C@@H]21	-22
COc1cc(NC(=O)NCC(c2cccnc2)c2c[nH]c3ccccc23)cc(OC)c1OC (stereo not drawn)	249
COc1ccccc1OCCN(C)C(=O)c1cnc(C(C)(C)C)nc1	31
CC(=O)N1CCC(C(=O)NCc2ccccc2)(N(Cc2cccc(C)c2)C(=O)c2ccc(C)cc2)CC1	-52
CC[C@H]1CC=CC[C@H](C)Oc2ccccc2C(=O)N(C)[C@@H](C)C(=O)N1 (mixture of isomers)	-3
O=C(CC1N=C2c3ccccc3N=C(SCc3cccc(F)c3)N2C1=O)NCc1cccs1 (stereo not drawn)	-7
O=C(c1ccc2nc[nH]c2c1)N1CCC(CCOc2ccccc2)(C(=O)O)CC1	4
Cc1nc(-c2ccc(F)cc2)sc1CCNC(=O)c1ccc(Cl)cc1	-58
C=CC(=O)Nc1cccc(Oc2nc(Nc3ccc(N4CCN(C)CC4)cc3)ncc2Cl)c1	-57
CN(C)CCC(c1ccccc1)c1ccccn1 (stereo not drawn)	-22&2&-18
CO[C@@H]1CCN(C(=O)c2cc(C3CC3)on2)C[C@@H]1Cc1ccccc1	-18
C=CCn1c(N2CCCCCC2)nc2c1c(=O)n(C)c(=O)n2C	-37
C=CCn1ncc(CN2CCC(NC(C)=O)(c3ccccc3F)CC2)c1C	158
CCS(=O)(=O)Nc1ccc2c(c1)C(=O)N(C)[C@H]1CC[C@H](CC(=O)NCc3ccc(OC)cc3)O[C@@H]1CO2	-5
CCOC(=O)c1sc(NS(=O)(=O)c2ccc(C)cc2)nc1C	18
C/C=C/c1ccc(C2[C@H]3CNC[C@@H]2N3C(=O)Nc2ccc(C(F)(F)F)cc2)cc1 (stereo partly drawn)	18&-1
Cc1ccc(CN2CCC(c3nc4ccc(Nc5ccccc5)cn4n3)CC2)o1	-17
COc1ccc2c(c1)NC1(CCN(S(=O)(=O)c3cc(C)ccc3C)CC1)c1cccn1-2	-6
Cc1ccc(S(=O)(=O)NC(C(=O)O)C(C)O)cc1 (stereo not drawn)	-4

# Shown as labelled records: entries from further up
> C=CCn1c(N2CCCCCC2)nc2c1c(=O)n(C)c(=O)n2C
  Tg IFNy HTS = -37
> CCC(Oc1ccccc1F)C(=O)N1CCCC(c2cc3ncccc3cn2)C1 (stereo not drawn)
  Tg IFNy HTS = -17
> CC[C@H]1CC=CC[C@H](C)Oc2ccccc2C(=O)N(C)[C@@H](C)C(=O)N1 (mixture of isomers)
  Tg IFNy HTS = -3
> CC1=C(C(=O)NCCc2ccc(Cl)cc2)C2(CCN(S(C)(=O)=O)CC2)OC1=O
  Tg IFNy HTS = 12

# Filtered by structure, those above containing a tert-butyl group (3)
Structure	Tg IFNy HTS
CC(C)(C)c1ccc(CSC2=Nc3ccccc3C3=NC(Cc4ccccc4)C(=O)N23)cc1 (stereo not drawn)	-67
CC(C)(C)NC(=O)C1C2CC3(Oc4ccc5ccccc5c42)N1c1ccccc1C3(C)C (stereo not drawn)	-45
COc1ccccc1OCCN(C)C(=O)c1cnc(C(C)(C)C)nc1	31

# Other records follow:
Structure	Tg IFNy HTS
CC(C)c1cn(CC(=O)NC(C)c2nc3ccccc3s2)nn1 (stereo not drawn)	25
Cc1ccc(-c2cncc(C(=O)N3CCOCC3)n2)c(-n2nc(C)cc2C)c1	5
COc1cc(-c2ncccc2C(F)(F)F)cc(OC)c1OC	14
COC(C)(C)Cn1ccnc1-c1cc(F)ccc1-n1nc(C)cc1C	1
COc1ccc2nc(C)c(C(=O)Nc3nnc(CCc4ccccc4)s3)cc2c1	-7
O=C(c1cccnc1)N1CC(=O)N2[C@H](CO)[C@H](c3ccc(-c4ccccc4F)cc3)[C@H]2C1	-13
N#C[C@H]1[C@H](c2ccc(C#Cc3ccccc3F)cc2)[C@H](CO)N1C(=O)c1cccnc1	23
CCc1cc(N2CC[C@@H](N3CCC(O)CC3)[C@H](O)C2)nc(N2CCCCC2)n1	-11
Cc1ccc(-c2nc(C)c(CCNC(=O)C(=O)Nc3c(C)cc(C)cc3C)s2)cc1	-45
CCCCCCCCCC(=O)N[C@@H](Cc1c[nH]c2ccccc12)C(=O)N[C@H](CC(N)=O)C(=O)N[C@@H](CC(=O)O)C(=O)N[C@@H]1C(=O)NCC(=O)N[C@@H](CCCN)C(=O)N[C@@H](CC(=O)O)C(=O)N[C@H](C)C(=O)N[C@@H](CC(=O)O)C(=O)NCC(=O)N[C@H](CO)C(=O)N[C@@H]([C@@H](C)CC(=O)O)C(=O)N[C@@H](CC(=O)c2ccccc2N)C(=O)O[C@@H]1C	10
CCCCOCC(=O)N1CCC(c2[nH]ncc2CC)CC1	0
O=C(C[C@@H]1CC[C@@H]2[C@H](COC[C@@H](O)CN2C(=O)Nc2ccccc2)O1)NCc1ccccc1F	-14
CCc1ccccc1NC(=O)CN1C(=O)CCc2cc(S(=O)(=O)N3CCCCC3)ccc21	8
O=C1OCCN1CC(=O)N(CC#Cc1ccccc1)C1CCCC1	-39
CCc1ccc(S(=O)(=O)N2CCC3(CC2)Nc2ccccc2-n2cccc23)cc1	-2
COc1ccc(NC(=O)N2C[C@H](O)COC[C@@H]3O[C@H](CC(=O)N4CCCCC4)CC[C@H]32)cc1	0
CCCNC(=O)N1CC2(C1)[C@@H](c1ccccc1)[C@H](CO)N2CC1CCOCC1	-17
CO[C@@H](C(=O)N(C)C[C@@H]1OCc2ccccc2-c2ccccc2C(=O)N([C@@H](C)CO)C[C@@H]1C)c1ccccc1	8
CCN(Cc1cncn1C)c1ccc(N2CCCCC2)c(C(F)(F)F)c1	-48
CN(Cc1cc(C2CC2)n[nH]1)C(=O)CCc1cn2ccccc2n1	1
COc1ccc(C[C@H]2CN(C)CC[C@H]2OC)cc1	1
Cc1nc(S(=O)(=O)N2CCC3(CCCN(C)C3=O)C2)cn1C (stereo not drawn)	3
COc1ccc(-c2cc(C(=O)O)nc(=O)n2C)cc1	28
CN(C)CCN1CCOC2(CCN(c3nccs3)CC2)c2ccccc21	-46
Cc1nc(N2CCCC2)nc2c1CCN(C(=O)c1ccoc1)CC2	-4
COCCCNS(=O)(=O)c1ccc(NC(C)=O)cc1	19
Cc1sc[n+](CC(=O)c2ccccc2)c1C	72
COc1cccc(CNC(=O)C2CC3(CO2)CN(C(C)C)c2ccccc23)c1 (stereo not drawn)	17
Cc1ccc(CN2C[C@@H](C(=O)N3CCCO3)C[C@@H]3OCC[C@@H]32)s1	-25
O=C(NC1CCCC1)N1CC[C@H]2CN(Cc3cccc(Cl)c3)S(=O)(=O)[C@@H]2CC1	-28
Cc1noc(C)c1S(=O)(=O)Nc1ccc2c(c1)C(=O)N([C@H](C)CO)C[C@H](C)[C@H](CN(C)Cc1ccc(C(=O)O)cc1)OCCCC[C@@H](C)O2	-3
CC(C)c1ccc(OCc2ccc(C(=O)O)o2)cc1	132
CC(=O)N[C@H]1CCN(c2nc(-c3ccncc3)nc3c2CCN(C(C)=O)C3)C1	-5
CCOC(=O)c1[nH]c(C)c(C(C)=O)c1C	38
CCOC(=O)CC1=CSC2=NCCN12	32
O=C(O)CCNC1C=CS(=O)(=O)C1 (stereo not drawn)	-6
c1ccc(N2CCn3c(Cn4cncn4)cnc3C2)nc1	-11
COc1ccc(CN2C(=O)N(CC(C)C)C3(CCN(Cc4cc(F)ccc4F)CC3)C2=O)cc1	8
Cc1noc(C)c1S(=O)(=O)NCc1ccccn1	-5
O=C(Cc1cccnc1)N1CCN(c2nnc(C(F)(F)F)s2)CC1	-10
COc1ccc(CNC(=O)N2CCC(c3nc(C(=O)N4CCOCC4)c(C)o3)CC2)cc1	-32
O=C(Nc1ccc2c(c1)CS(=O)(=O)C2)c1cccs1	48
CNC(=O)[C@@H]1C[C@@H](N)CN1C(=O)c1ccc(CSc2ccccn2)cc1	2
O=C(NCCc1csc(-c2ccc(F)cc2)n1)C(=O)Nc1ccccc1	-43
Clc1ccc(CCCOCCCN2CCCCC2)cc1	1
CSc1ccccc1C(=O)c1ccccc1C(=O)O	-36
CCOc1ccc(CNC(=O)c2nc(Nc3cccc(C)c3)c3ccccc3n2)cc1	-94*
C(#Cc1ccc(-c2ccn[nH]2)cc1)c1ccccc1	i
CN(CCN1CCCCCC1)C(=O)c1cc(CN2CCCC(O)C2)on1 (stereo not drawn)	14
CCOc1ccc(C2c3[nH]c4ccccc4c3CCN2C(=O)Cc2cccc(OCC)c2OCC)cc1 (stereo not drawn)	-35
C=CCN1C[C@@H]2CN(C(=O)c3cnc[nH]3)C[C@H]2C1=O	i
CN(C)S(=O)(=O)N1CCN(C(=O)c2ccco2)CC1	0
Cc1c(N2CCCC2)cc2c(c1N)C(C)(C)CC2(C)C	30
CCOC(=O)C(NC(=O)c1cccnc1)(Nc1cccc(C)n1)C(F)(F)F (stereo not drawn)	-45
COc1ccc(-c2noc(C3CCCN3C(=O)c3sc(C)nc3C)n2)cc1 (stereo not drawn)	16
CNC(=O)c1cc2c(nc1NCC(C)C)CCN(C(=O)NCC(C)C)CC2	-67
Cc1cc(=O)oc2c(C=O)c(O)ccc12	25
CC(C)N1CCC(N2CCN(Cc3cccc4c3OCO4)CC2CCO)CC1 (stereo not drawn)	5
CN1C(=O)c2cc(NC(=O)c3cscn3)ccc2OC[C@H]2O[C@H](CC(=O)N3CCOCC3)CC[C@H]21	3
Fc1ccccc1NC(=S)Nc1ccc2c(c1)oc1ccccc12	117
C/C=C/c1ccccc1[C@@H]1[C@H](C#N)N(C(C)=O)[C@H]1CO	23
